# LT uptake inh – anthrax lethal toxin internalization inhibition | Cells, anthrax lethal toxin internalization, FRET ratio (460/530) | 70,000 compounds, 0.67% hits | Potency, µM (top dose mostly 40 µM), for inactives: top-dose activity change, negative = inhibition, usual class: inhibitors; active = well fitted falling ratio curve with the 530 nm signal flat; inconclusive = other ratio curves, or a change in one channel alone; inactive = flat curves in the ratio and both channels; the % refers to the ratio; also: % is scaled to controls: 0 for no effect and ±100 for the full control effect; nearly all actives have a fitted effect of over 50% in size; tested in ME-180 cells; beta-lactamase reporter
# Prx2 Sm inh – Schistosoma mansoni Prx2 inhibition | AID 448 | 65,000 compounds, 0.07% hits | Potency, µM | S. mansoni Prx2 activity coupled to TGR/GSH (TGR is thioredoxin glutathione reductase), NADPH fluorescence loss, qHTS; some inactives read as strong as hits; active means full or partial inhibition curve with a strong effect at the top dose; inconclusive means weaker partial or single-point curve; inactive means no accepted curve; also: series up to 57 µM; many of its hits are not listed in these tables
#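 Coupled assay in which S. mansoni TGR passes NADPH reducing equivalents via glutathione to Prx2, which reduces H2O2. Compounds were preincubated 15 min at room temperature with 25 nM TGR/50 nM Prx2 mix. Kinetic NADPH fluorescence loss (ex 365/em 450 nm) was monitored.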
# The depositor's hits bear a star; ? = inconclusive; . = not tested or not shown; & = joins results of further samples; [ ] = remark or other dose. Potency is read from the fitted curve at half-maximal effect. Some of the compounds tested, so the mix of outcomes need not match the whole.
# Start of the data: the first 2 records (preview)
nr	Structure	LT uptake inh	Prx2 Sm inh
1	O=C(CSCSCC(=O)Nc1ccc2c(c1)OCO2)Nc1ccc2c(c1)OCO2	2%	>57
2	CC(=O)Nc1cccc(NC(=O)c2cc(C)on2)c1	?	>57

# Main list, repeating the preview:
nr	Structure	LT uptake inh	Prx2 Sm inh
1	O=C(CSCSCC(=O)Nc1ccc2c(c1)OCO2)Nc1ccc2c(c1)OCO2	2%	>57
2	CC(=O)Nc1cccc(NC(=O)c2cc(C)on2)c1	?	>57
3	O=C(Nc1ccccn1)Nc1cccs1	-11%	>57
4	CCN(CC)S(=O)(=O)c1cccc2cc(C(=O)O)c(O)cc12	2%	>57
5	CC1Cc2cc(/C(O)=C3/C(=O)C(=O)N(CCCn4ccnc4)C3c3ccco3)ccc2O1 (stereo not given)	?	>57
6	COc1ccccc1C(=O)N1CCN(S(=O)(=O)c2ccccc2)CC1	?	.
7	CCOc1cc(N2CCOCC2)c(OCC)cc1NC(=O)CN1CCc2ccccc2C1	-8%	>57
8	C[N+](C)(C)CCCCCC[N+](C)(C)C	?	>57&>57&>57
9	CS(=O)(=O)N1CCc2cc(C(=O)N3CCOCC3)ccc21	.	>57
10	CCOC(=O)c1nn(-c2ccc3c(c2)OCO3)cc1O	-14%	>57
11	Cc1noc(C)c1C(=O)OCC(=O)NC(=O)NC12CC3CC(CC(C3)C1)C2	14%	>57
12	CCN(CC)c1ccc(CNC23CN4CN(CN(C4)C2)C3)cc1	-11%	.
13	Cc1onc(-c2ccccc2Cl)c1C(=O)N1CCN(C(=O)c2ccco2)CC1	-8%	.
14	CCCn1c(N2CCN(C(=O)N3CCCCC3)CC2)nc2ccccc21	-29%	>57
15	COc1ccc(OCC(=O)N2CCN(CC3CC4C=CC3C4)CC2)cc1 (stereo not given)	-1%	>57
16	CCCCCCN=CC1=C(O)C(C(=O)OC)C(C)(C)CC1=O (stereo not given)	-4%	.
17	O=C(c1ccc(F)cc1)C(CN1CCOCC1)c1ccccc1 (stereo not given)	13µM*	.
18	COC(=O)N1CCC2(CCCN(C(=O)Nc3ccccc3)C2)CC1	19%	>57
19	CCC1CCCCN1CCCNC(=O)c1ccc(CS(=O)(=O)Cc2ccccc2F)o1 (stereo not given)	-3%	>57
20	CCCCCC(=O)Nc1ccc2oc(-c3cccnc3)nc2c1	?	>57
21	Cc1ccc(N(Cc2ccccc2)Cc2ccccc2)cc1	-11%[8 µM]	>57
22	CC1(C)Oc2cc3c(cc2O1)OC(C)(C)O3	-12%[8 µM]	.
23	COC(=O)C1=C(C)NC(=O)NC1C1CC=CCC1 (stereo not given)	-9%	.
24	CCOc1ccc(-n2cc(C(=O)NCc3ccco3)c3cc(OC)c(OC)cc3c2=O)cc1	-3%	>57
25	COc1ccc2nc(NC(=O)CCc3nc(C4=CCN(C)CC4)no3)sc2c1	11%	>57
26	Cc1cccc(N2CCN(S(=O)(=O)c3ccc4c(c3)CCN4C(=O)CCC(=O)O)CC2)c1C	0%	>57
27	COc1ccccc1C(=O)n1nc(-c2cccnc2)nc1N	28%	>57
28	O=C(c1ccccc1Br)N1CCN(c2ccccc2)CC1	4%	>57
29	O=C(NCCc1ccco1)c1nn(Cc2ccccc2)c(=O)c2ccccc12	6%	>57
30	O=c1oc2ccccc2c(N2CCCCC2)c1CN1CCCCC1	1%	>57
31	O=C(CCC(=O)c1cccs1)OCc1nc2ccccc2s1	8%	>57
32	CS(=O)(=O)N1CCN(C(=O)c2cc(-c3cccs3)nc3ccccc23)CC1	0%	>57
33	O=c1[nH]c(=O)n(C2CCCCCC2)c(O)c1C=NC1CCN(Cc2ccccc2)CC1	3%	>57
34	COc1ccc(OCc2nnc(SCC(=O)O)n2N)cc1	-9%	>57
35	Cc1nnc(SCc2ccccc2F)n1NCc1cccs1	-12%	>57
36	COc1ccc(Cn2c(C)nc3c(c2=O)c2nc4ccccc4nc2n3Cc2ccco2)cc1	?	>57
37	Cn1c(=O)c2c(nc(SCC(=O)NC3CCCCC3)n2C)n(C)c1=O	-2%	>57
38	COc1ccccc1N1CCN(C(=O)CN(Cc2ccc(Cl)cc2)S(C)(=O)=O)CC1	?	>57
39	Cc1nn(CC(=O)Nc2ccc3c(c2)oc2ccccc23)c(=O)c2ccccc12	9%	>57
40	Cc1cc(C(C)(C)CC(C)(C)C)ccc1OCCOCC[N+](C)(C)Cc1ccccc1	15%[3.58 µM]	>57
41	c1csc(CN2CCN(Cc3cccs3)C2c2cccs2)c1	3%	>57
42	O=C(CSc1nc2cc(Cl)ccc2s1)N1CCN(C(=O)c2ccco2)CC1	0%	>57
43	CCN(C(=O)c1cccc(F)c1)c1ccccc1C	1%	>57
44	Cc1cccc(C)c1-n1nnnc1S(=O)(=O)Cc1ccccc1Cl	-29%	>57
45	Cc1nc2c(cc(Oc3ccc(S(=O)(=O)N4CCOCC4)cn3)c3ccsc32)s1	-26%	>57
46	O=C(c1cccs1)N1CCC(c2ccccc2)C1 (stereo not given)	15%	>57
47	COP(=S)(OC)SCN1C(=O)c2ccccc2C1=O	1%	.
48	O=C(O)C1CCCN1S(=O)(=O)c1ccc2[nH]c(=O)c(=O)[nH]c2c1 (stereo not given)	1%	>57
49	Cc1ccc(NS(=O)(=O)c2ccc3c(c2)c(=O)n(C)c(=O)n3C)cc1F	-5%	>57
50	COC(=O)c1ccc(NC(=O)CNC(=O)C2CCCCC2)c(C)c1	2%	>57
51	CC1CCCC(C)N1C(=O)c1cc(F)c(F)cc1Cl (stereo not given)	1%	>57
52	Cn1cccc1C(=O)N1CCC[C@@]2(CCN(Cc3cc(C(F)(F)F)cc(C(F)(F)F)c3)C2)C1	4%	>57
53	COc1ccc(CCC(=O)NCc2cnn(C)c2)cc1	11%	>57
54	Cc1ccc(S(=O)(=O)CC(=O)Nc2ccc(S(=O)(=O)Nc3onc(C)c3C)cc2)cc1	-1%	>57
55	CC(C)/C=C1\CCCCC1N(C)C(=O)NC(C)C (stereo not given)	?	.
56	CC(=O)C1C(c2cccc(F)c2)NC(=O)NC1(O)C(F)(F)F (stereo not given)	14%	>57
57	COc1ccc(S(=O)(=O)N2CCCC2C(=O)Nc2nc3c(s2)CCCC3)cc1 (stereo not given)	-17%	>57
58	CCOC(=O)C1=C(N)OC2=C(C(=O)CC(C)(C)C2)C1c1ccco1 (stereo not given)	2%	>57
59	Cc1cc(C)nc(Sc2ccc3nnnn3n2)n1	2%	>57
60	O=C(CSc1nnc(Cc2cc(=O)[nH]c(=O)[nH]2)n1-c1ccc(Cl)cc1)NCC1CCCO1 (stereo not given)	4%	>57

# The list continues:
nr	Structure	LT uptake inh	Prx2 Sm inh
61	CN(C)C(=O)c1ccc(-c2cncnc2NCCN2CCOCC2)cc1	-1%	>57
62	O=c1nc(NCc2ccco2)sc2ncccc12	7%	>57
63	Nc1nnc(SCC(=O)Nc2ccccc2N2CCOCC2)s1	7%	>57
64	C=CCn1c(O)c(C(C)=NCc2cccnc2)c(=O)[nH]c1=O	-11%	>57
65	Cc1c(NC(=O)c2cccc(NC(=O)c3ccco3)c2)cccc1C(=O)O	-2%	>57
66	Cn1nnc2cc(C(=O)Nc3cccnc3)ccc21	12%	>57
67	CCOC(=O)N1CCC(NC(=O)c2cccc3c2C(=O)N(CCOC)C3)CC1	18%	>57
68	COc1cccc(-c2nnc(SCC(N)=O)n2-c2ccc(Cl)cc2)c1	11%	>57
69	Cc1n[nH]c(C)c1S(=O)(=O)N(CC(=O)N1CCc2ccccc21)c1ccc(C(C)C)cc1	6%	>57
70	Nc1nc2n(n1)C(c1cccs1)CC(c1ccccc1)N2 (stereo not given)	-4%	>57
71	CC(C)OC(=O)CSc1nnc(-c2cccnc2)n1Cc1ccccc1	15%	>57
72	CSc1ccc(Cl)c(C(=O)NCC(C)C)c1	-8%	>57
73	COc1ccc(C2(O)CCN(C(=O)c3ccc4c(c3)OCO4)CC2)cc1	3%	>57
74	Nc1ccc(C(=O)c2ccc3c(c2)OCCO3)cc1N	8%	>57
75	CCCCn1c(SCc2nnc(-c3ccccc3)o2)nc2c1c(=O)n(C)c(=O)n2C	11%	>57
76	CC(=O)Nc1cccc(C(=O)Oc2cccc(C)c2)c1O	2%	>57
77	CC(C)c1nc2sc3c(NCc4ccco4)ncnc3c2c2c1COC(C)(C)C2	0%	>57
78	CC(=O)c1ccc(N2CCN(C(=O)C3CCCN(S(=O)(=O)c4cnc[nH]4)C3)CC2)cc1 (stereo not given)	7%	>57
79	COC(=O)c1ccc(C(NC(=O)OCc2ccccc2)/C(F)=C/[C@@H](C)C(=O)NCCO)cc1 (stereo not given in full)	15%	.
80	CCCc1cc(-c2ccc(O)c(OCC)c2)c(C#N)c(N)n1	-7%	>57
81	C[C@@H]1O[C@H]1P(=O)(O)O	8%	>57
82	O=C(NC1CCS(=O)(=O)C1)c1ccc(S(=O)(=O)NCC2CCCO2)cc1 (stereo not given)	6%	>57
83	O=C(Nc1ccc(NC(=O)c2ccco2)cc1)c1cnccn1	-20%	.
84	CCOc1ccc(N(CC)C(=O)COc2cc(=O)n(C)c3ccccc23)cc1	4%	>57
85	Cc1nc(Nc2ccccc2)[nH]c(=O)c1CCC(C)C	1%	>57
86	CCOC(=O)N1CCN(C(=O)C2CC(c3cc(OC)ccc3OC)=NO2)CC1 (stereo not given)	-17%	>57
87	C[C@H](N)Cc1c[nH]c2ccc(OCc3cccs3)cc12	?	>57&>57
88	COc1cccc(C2=NOC(C(=O)NC(C)(C)C)C2)c1 (stereo not given)	7%	>57
89	COc1ccc(-c2cc(=O)c3ccccc3s2)cc1	-5%	>57
90	COc1ccccc1N(CC(=O)Nc1ccc2c(c1)OCO2)S(=O)(=O)c1ccccc1	-30%	.
91	CCCN(c1nc(C)cc(OC)n1)S(=O)(=O)c1ccccc1	-20%	>57
92	CCN1CCN(c2ncc3c(n2)CC(c2ccc(OC)c(OC)c2)CC3=O)CC1 (stereo not given)	?	>57
93	CC(Nc1ccc(Br)cn1)c1cc(Cl)ccc1O (stereo not given)	?	>57
94	O=C(O)c1cn(-c2ccccc2)nc1-c1cccnc1	-9%	>57
95	Cc1ccc(Oc2cc(C)nc(-c3ccccc3O)n2)cc1	?	>57
96	CCC(Oc1ccc(C)c(C)c1)C(=O)O (stereo not given)	?	>57
97	Cc1cnc(CNc2ncncc2-c2ccoc2)cn1	-2%	>57
98	O=C(CCn1nc(-c2ccc(Cl)cc2)ccc1=O)N1CCN(c2ccccn2)CC1	6%	>57
99	O=C(O)C1C2C=CC(C2)C1C(=O)NCCCn1ccnc1 (stereo not given)	?	>57
100	Cc1ccc(NC(=O)Cn2cnc3c(=O)n(C)c(=O)n(C)c32)c(C)c1	-18%	>57
101	O=c1[nH]c2cc3c(cc2cc1CN(Cc1cccs1)Cc1nnnn1Cc1ccco1)OCCO3	-1%	>57
102	CC1=C(C(=O)Nc2ccc(C)cc2)C(c2ccc(C)o2)C2=C(CC(C)(C)CC2=O)N1 (stereo not given)	0%	>57
103	O=C(O)CCc1nn2c3ccccc3nc2n(-c2ccccc2)c1=O	-14%	>57
104	O=C(O)c1ccccc1OCCOc1ccccc1	-13%	>57
105	Cc1cc(C(=O)Nc2ccc3c(c2)OCCO3)c(C)o1	?	>57
106	COCC(=O)N1CCC2(CC1)CN(Cc1nccs1)C2	?	>57
107	Brc1ccccc1Cn1c(-c2cncs2)nc2ccccc21	10µM*	>57
108	Nc1ccc(N2CCCCC2)cc1N1CCCCC1	0%	>57

# Reformatted: 7 of the compounds above
(106) COCC(=O)N1CCC2(CC1)CN(Cc1nccs1)C2
(101) O=c1[nH]c2cc3c(cc2cc1CN(Cc1cccs1)Cc1nnnn1Cc1ccco1)OCCO3
(99) O=C(O)C1C2C=CC(C2)C1C(=O)NCCCn1ccnc1 (stereo not given)
(104) O=C(O)c1ccccc1OCCOc1ccccc1
(97) Cc1cnc(CNc2ncncc2-c2ccoc2)cn1
(107) Brc1ccccc1Cn1c(-c2cncs2)nc2ccccc21
(98) O=C(CCn1nc(-c2ccc(Cl)cc2)ccc1=O)N1CCN(c2ccccn2)CC1
compound no. | 106 | 101 | 99 | 104 | 97 | 107 | 98
LT uptake inh | ? | -1% | ? | -13% | -2% | 10µM* | 6%
Prx2 Sm inh | >57 | >57 | >57 | >57 | >57 | >57 | >57

# Additional results:
nr	Structure	LT uptake inh	Prx2 Sm inh
109	Cn1c(=O)c2c(ncn2CC(=O)N2CCN(c3ccccc3F)CC2)n(C)c1=O	-10%	>57
110	C=CCN1CC[C@@]23c4c5ccc(O)c4O[C@H]2/C(=N\N=C2/CC[C@@]4(O)[C@H]6Cc7ccc(O)c8c7[C@@]4(CCN6CC=C)[C@@H]2O8)CC[C@]3(O)[C@@H]1C5	?	>26&>57
111	O=C(CCC1CCCC1)NCc1ccccn1	6%	>57
112	O=C(CCC(=O)N1CCCc2ccccc21)N1CCN(S(=O)(=O)c2ccccc2)CC1	-11%	>57
113	Cc1ccc(-c2nc3ccccc3o2)cc1NC(=O)c1ccc2c(c1)OCO2	0%	>57
114	Cc1c(C(=O)OCCOC(C)C)[nH]c2c1C(=O)CC(C)(C)C2	3%	>57
115	COc1ccccc1NC(=O)CN1CCN(c2ccc(Cl)cc2)CC1	-10%	>57
116	COc1ccc(Cc2nnnn2CC(=O)O)cc1	-4%	>57
117	O=C(c1cc(F)c(F)cc1Cl)N1CCOCC1	-8%	>57
118	CNC(=O)NC(=O)CSc1cccc(C(F)(F)F)c1	-6%	>57
119	CCOC(=O)c1c(NC(=O)CSc2nc(C)cc(C)c2C#N)sc(C(C)=O)c1C	-3%	>57
